# A488 fluor: qHTS Assay for Spectroscopic Profiling in A488 Spectral Region | compound autofluorescence, A488 spectral region, dye equivalency; active compounds read high | AID 591, 2007 | max dye equivalency, M | actives 0.1% (n = 59,000); active = above 10 nM dye equivalent; inconclusive = 1 to 10 nM; inactive = 1 nM or less; about half of its hits are not listed in these tables;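 note: highest value over a series up to 38 µM; compound alone in buffer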
#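 Spectroscopic profiling in the A488 region: compounds in pH 8.0 Tris (100 mM), 15 min RT, CCD imaging with 480 nm excitation and 540 nm emission; responses normalized against A488 dye standards.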
# Resorufin fluor: qHTS Assay for Spectroscopic Profiling in Resorufin Spectral Region. Compound fluorescence, resorufin region 547/598 nm, buffer; active compounds read high. max dye-equivalent concentration, M. actives 0.04% (n = 59,000); active = above 10 nM dye equivalent; inconclusive = 1 to 10 nM; inactive = 1 nM or less; a few of its hits are not listed in these tables; note: highest value over a series up to 38 µM
#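 Compounds in 100 mM Tris, pH 8.0, incubated 15 min at room temperature, then fluorescence read at 547 nm excitation/598 nm emission. Signal converted to dye-equivalent concentration via an on-plate six-point resorufin standard curve, per compound concentration.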
# AID923: qHTS Assay for Allosteric/Competitive Inhibitors of Caspase-1: Spectroscopic Profiling in AFC Spectral Region; compound fluorescence, AFC spectral region (405/520 nm); almost no hit is shown here; Potency, µM (series often up to 57.5 µM), inactives show top-dose fluorescence increase, usual class: activators; actives 1.1% (n = 75,000); AID 923, 2007; active = well fitted activation curve with a large enough effect; inconclusive = small, poorly fitted or top-dose-only effect;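 note: potency is the fitted concentration of half-maximal effect; 0% is about no effect; scaled to a free AFC standard on each plate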
#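 Baseline compound fluorescence (AFC region, 405 nm ex/520 nm em) taken from the intercept of kinetic reads with 50 nM caspase-1 and 5 uM Ac-WEHD-AFC; normalized to an on-plate AFC standard curve; compounds titrated up to 57 uM.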
# A647 fluor: qHTS Assay for Spectroscopic Profiling in A647 Spectral Region. Compound fluorescence, A647 channel (570/671 nm), Tris buffer. max dye-equivalent concentration, M. 59,000 tested, under 10 active. AID 592, 2007; active means above 1 µM dye equivalent; inconclusive means 0.1 to 1 µM; inactive means 0.1 µM or less;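 note: values scaled relative to a standard on each plate; highest value over a series up to 38 µM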
#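 Each compound's intrinsic fluorescence at 570 nm excitation and 671 nm emission is measured across its concentration series in 100 mM Tris, pH 8.0, after 15 min at room temperature, and reported relative to an A647 curve.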
# TSHR ag: qHTS Assay for Agonists of the Thyroid Stimulating Hormone Receptor; HEK293-CNG-TSHR cells (CNG channel as cAMP sensor), membrane potential dye, cAMP; Potency, µM (doses to about 57.1 µM), for the others: at the top dose activation, most hits filed as activators; actives 0.48% (n = 73,000); AID 926, 2007; active = well fitted activation curve of enough size with the parental cells flat; inconclusive = any curve in the parental cells; inactive = parental cells flat and receptor cells flat or falling; note: potency is the fitted concentration of half-maximal effect; % of control where 0% means no effect; weak receptor curves with flat parental cells got no call and are not listed
# Target sequence (P16473 whole entry, looked up): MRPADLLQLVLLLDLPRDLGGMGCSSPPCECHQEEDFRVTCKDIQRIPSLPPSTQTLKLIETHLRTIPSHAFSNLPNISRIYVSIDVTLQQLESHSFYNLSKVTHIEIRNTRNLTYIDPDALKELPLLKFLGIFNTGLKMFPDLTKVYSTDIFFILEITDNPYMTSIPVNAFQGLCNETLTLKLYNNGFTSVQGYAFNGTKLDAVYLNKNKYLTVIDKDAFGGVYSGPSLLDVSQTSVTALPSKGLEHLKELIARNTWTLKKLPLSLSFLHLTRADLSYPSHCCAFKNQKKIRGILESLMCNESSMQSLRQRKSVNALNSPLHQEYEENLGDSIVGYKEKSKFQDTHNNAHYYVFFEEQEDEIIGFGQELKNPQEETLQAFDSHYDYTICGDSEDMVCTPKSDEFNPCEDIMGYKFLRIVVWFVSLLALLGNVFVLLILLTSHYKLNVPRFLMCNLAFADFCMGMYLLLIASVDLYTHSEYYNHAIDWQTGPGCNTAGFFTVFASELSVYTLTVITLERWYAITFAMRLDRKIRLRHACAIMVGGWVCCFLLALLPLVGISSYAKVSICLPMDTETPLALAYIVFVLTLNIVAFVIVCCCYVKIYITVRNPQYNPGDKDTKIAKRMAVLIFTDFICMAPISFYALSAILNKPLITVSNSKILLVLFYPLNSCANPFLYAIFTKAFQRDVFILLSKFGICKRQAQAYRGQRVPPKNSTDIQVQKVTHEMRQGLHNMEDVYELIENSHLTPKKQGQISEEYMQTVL
#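 HEK 293 cells stably expressing TSHR and a modified CNG channel, with CNG-only parental cells as counterscreen, were preloaded 60 min at room temperature with membrane potential dye containing 100 uM RO 20-1724. Compound exposure was 30 min, and depolarization was read as fluorescence at 590 nm.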
# Starred values were filed as active, the others as inactive; i = inactive; ? = inconclusive; . = not tested or not shown; [ ] = remark or other dose.
SMILES,A488 fluor,Resorufin fluor,AID923,A647 fluor,TSHR ag
Cc1noc(C)c1COC(=O)c1ccc(-c2nc3ccccc3s2)s1,i,i,1.0%,1.5e-09,21.4%
Cc1cc(C)cc(CSc2nnc(C)c(=O)[nH]2)c1,i,i,4.5%,1.08e-08,18.2%
COCCNC(=O)C1CC(=O)N(C2CCCC2)C1 (centres undefined),i,i,-0.3%,1e-09,13.2%
COc1ccc(N/C(C)=C2/C(=O)C(=O)N(CCO)C2c2ccc(Br)cc2)cc1 (centres undefined),i,i,-1.1%,1.8e-09,?
COc1ccc(CCn2c(C)cc(C(=O)CSc3nnnn3-c3ccccc3)c2C)cc1OC,i,i,-3.2%,2.05e-08,.
COC(=O)CSc1nnc([C@H](CC(C)C)NC(=O)OC(C)(C)C)o1,i,i,0.0%,1.7e-08,22.4%
CCN(CC)CCCNC(=O)c1c(O)c2c([nH]c1=O)CCCC2,i,i,-2.2%,1.8e-09,5.0%
CCc1ccc2c(CN3CCc4ccccc43)cc(=O)oc2c1,i,i,0.9%,4.1e-09,-0.3%[11.4 µM]
Cc1nnc(Nc2ccc3c(c2)OCO3)c2ccccc12,.,.,-0.2%,.,-22.8%[11.4 µM]
COC(=O)c1ccccc1NC(=O)CN1C(=O)CSC1=O,i,i,0.4%,1.51e-08,6.2%
CN(C)CCCNCCCN,.,.,-1.7%,.,-14.5%
O=C(O)c1ccc(S(=O)(=O)NC2CCCCC2)cc1,i,i,-0.1%,2.96e-08,1.8%
COC(=O)[C@@]1(Cc2ccc(F)cc2)[C@H]2c3cc(C(=O)N(C)C)n(Cc4cccc5ccccc45)c3C[C@H]2CN1C(=O)c1ccccc1,.,.,0.6%,.,?
COc1cc(-c2nnc3sc(C4CCCCC4)nn23)cc(OC)c1OC,i,i,-3.4%,1e-09,?
CNCc1cc2ccc(C)cc2[nH]c1=O,i,i,-0.2%,3e-09,3.1%
c1cc(C(c2nnnn2C2CCCCC2)N2CCN3CCCC3C2)ccn1 (centres undefined),i,i,-0.9%,1.6e-09,7.2%
CCCCn1c(SCC(=O)c2cc(OC)ccc2OC)nc2cc(S(N)(=O)=O)ccc21,i,i,-0.4%,3.74e-08,?
COc1ccc(NC(=O)c2ccc3c(c2)C(=O)N(Cc2cccnc2)C3=O)c(OC)c1,i,i,-2.1%,2.46e-08,-6.7%
N#CC12CCCCC1CC1CCCCC1(C#N)N2Cc1cccnc1 (centres undefined),i,i,.,2.08e-08,.
CCOc1ccc(-c2nnc(-c3snc(-c4ccc(F)cc4)c3N=CN(C)C)o2)cc1,i,i,8.7%,1.34e-08,?
Cc1cc(=O)[nH]c(COc2ccccc2)n1,i,i,.,4.4e-09,.
O=C(Nc1ccccc1)N1CC[C@@]2(CCCN(C(=O)c3ccncc3)C2)C1,i,i,0.5%,5.8e-09,-5.6%
c1ccc(Cn2nnc3c(N4CCc5ccccc54)ncnc32)cc1,i,i,0.4%,1e-09,13.8%
CC1(C)O[C@@H]2C[C@H]3[C@@H]4CCC5=CC(=O)C=C[C@]5(C)[C@@]4(F)[C@@H](O)C[C@]3(C)[C@]2(C(=O)CO)O1,i,i,.,2.13e-08,.
O=C(c1ccco1)N1CCN(S(=O)(=O)c2ccc(Br)s2)CC1,i,i,-0.3%,2.37e-08,-6.7%
SMILES,A488 fluor,Resorufin fluor,AID923,A647 fluor,TSHR ag
COCCNCCOCCOc1cccc(OC)c1,.,.,2.0%,.,-0.9%
O=C(CCNS(=O)(=O)c1cccs1)Nc1ccccc1F,i,i,-2.5%,4.2e-09,3.6%[11.4 µM]
CCOC(=O)c1c(C)c(C(=O)NCc2ccccn2)c(C)n1C,i,i,-0.5%,7.3e-09,3.0%[11.4 µM]
Cc1ccc(CNC(=O)C2CCCN(S(=O)(=O)c3cccnc3)C2)cc1 (centres undefined),i,i,2.5%,3.4e-09,14.2%
COCCNC(=O)C(c1ccc(C)o1)N(Cc1ccccc1)C(=O)Cn1nnc2ccccc21 (centres undefined),i,i,-1.5%,1e-09,?
COc1ccc(CNc2nc(SCC(=O)NCc3ccco3)nc3ccccc23)cc1,i,i,1.8%,1.55e-08,-14.6%
Cc1cc(=O)c2cc(Cl)ccc2[nH]1,i,i,-1.3%,7.8e-09,0.6%
COC(=O)c1ccc(C(NC(=O)OCc2ccccc2)/C(=C/[C@@H](C)C(=O)NC2CCCCC2)c2cccnc2)cc1 (some centres undefined),.,.,-0.3%,.,?
N#Cc1cn(CCOc2ccccc2F)c2ccccc12,i,i,-1.1%,7.3e-09,6.5%
O=C(CSCc1cnn(-c2ccccc2)c1-n1cccc1)NCCN1CCOCC1,i,i,0.7%,3.46e-08,6.3%
COC(=O)c1ccccc1NC(=O)Cn1cnc2ccc(S(=O)(=O)N3CCC(C)CC3)cc2c1=O,i,i,1.3%,1e-09,0.2%[11.4 µM]
Cc1ccc2nc(NC(=O)C3CCCN(S(=O)(=O)c4cccc5nonc45)C3)sc2c1 (centres undefined),i,i,3.0%,2.6e-08,-8.8%
CC(CS(=O)(=O)c1cccc2cccnc12)N1CCCCC1 (centres undefined),i,i,8.5%,4.85e-08,-0.7%
CCOC(=O)c1ccc(NC(=O)CCc2nc(-c3ccccc3)no2)cc1,i,i,-0.4%,4.03e-08,9.6%
CC1(C)C(=O)C(c2ccccc2)=C2CN3C(=O)N(CCc4ccccc4)C(=O)C3(Cc3ccc(C(F)(F)F)cc3)C=C21 (centres undefined),.,.,1.7%,.,1.8%
O=C(O)C1Cc2ccccc2CN1C(=O)c1ccccc1 (centres undefined),i,i,-0.3%,3.5e-09,-5.0%
CC(=O)c1ccc(NC(=O)CSC(C)C)cc1,.,.,0.5%,.,26.0%
CC(=O)OC(/C(O)=C(\C#N)c1nc2ccccc2[nH]1)c1ccccc1 (centres undefined),.,.,9.2%,.,-2.6%[11.4 µM]
CCCCn1nnnc1SCC(=O)Nc1ccc(C)cc1,i,i,0.0%,1e-09,-2.2%
Nc1c(C(=O)c2ccccc2)oc2ccc(Br)cc12,i,i,12.7%,6.4e-09,17.6%
COc1cc(-c2nnc3sc(-c4ccccn4)nn23)cc(OC)c1OC,i,i,1.0%,1e-09,1.0%
O=C(O)CC(NCc1ccco1)C(=O)OCCc1ccccc1 (centres undefined),i,i,.,1.72e-08,.
COC(=O)c1ccc(Cl)c(NC(=O)NC2CCCCC2)c1,.,.,0.9%,.,15.6%
O=C(Nc1ccc(-c2noc(CCc3ccccc3)n2)cc1)c1ccco1,i,i,2.5%,7.9e-09,12.0%
Cc1onc(-c2ccccc2Cl)c1C(=O)Nc1ccc(-n2nncc2C(C)(C)C)cc1,i,i,0.4%,2.4e-09,?
SMILES,A488 fluor,Resorufin fluor,AID923,A647 fluor,TSHR ag
c1cncc(-c2nc(NCCN3CCOCC3)c3ccccc3n2)c1,i,i,0.7%,6.3e-09,4.3%
CC1CCCN(c2nc3ccccc3nc2C(C#N)S(=O)(=O)c2ccccc2)C1 (centres undefined),.,.,13.4%,.,-2.6%
CC(C)OC(=O)CN1CCN(C2c3ccccc3-c3ccccc32)CC1,i,i,-0.4%,4.93e-08,25.1µM*
Cc1onc(-c2ccccc2)c1C(=O)Nc1nc(-c2cc(F)ccc2F)cs1,i,i,-2.2%,1.85e-08,23.2%
CCC(C)C(NCc1cccc(C)c1)C(=O)O (centres undefined),i,i,1.9%,1.5e-09,-7.2%
Cn1cccc1Cc1nnc(SCC(=O)N2CCCc3ccccc32)n1-c1ccc(F)cc1,.,.,-0.4%,.,4.9%
CC(C)CN(CC(C)C)S(=O)(=O)N1CCC(C(=O)NCc2cccs2)CC1,i,i,-0.5%,1e-09,13.5%
S=C([S-])NCCNC(=S)[S-].[Zn+2],.,.,0.5%,.,4.2%
Cn1c(=O)[nH]c(=O)c2c1nc(Br)n2CCC(=O)c1ccccc1,i,i,-1.0%,4.9e-09,6.8%
COc1ccc(OCC(O)Cn2c(Nc3cccc(C)c3)nc3c2c(=O)n(C)c(=O)n3C)cc1 (centres undefined),i,i,.,1e-09,.
COc1ccc(CCNC(=O)CN2CCOc3ccccc32)cc1OC,.,.,1.2%,.,7.6%
C/C=C(\C)c1nnc(NC(=O)C(C)C)s1,i,i,-4.9%,1.55e-08,5.8%
O=C(O)CCC(=O)N1CCc2cc(S(=O)(=O)N3CCN(c4ccc(F)cc4)CC3)ccc21,.,.,-2.7%,.,2.1%
Cc1ccc(N(CC(=O)Nc2ccc(F)cc2)S(=O)(=O)N2CCCC2)cc1,i,i,1.1%,2.26e-08,?
O=C(COc1ccc2c3c(c(=O)oc2c1)CCC3)c1ccc2c(c1)OCO2,.,.,-1.1%,.,12.4%[11.4 µM]
COc1cc(C2c3c(-c4cc(Cl)c(C)cc4O)n[nH]c3C(=O)N2Cc2cccnc2)ccc1O (centres undefined),i,i,-0.5%,8.4e-09,?
O=S(=O)(NCc1ccccc1)c1ccc(S(=O)(=O)N2CCCCC2)cc1,i,i,-0.6%,3.93e-08,-9.3%
CCOC(=O)C1CCN(C(=O)c2ccccc2N(C)S(C)(=O)=O)CC1,i,i,-2.1%,6.4e-09,-1.9%
C#CCOC(=O)c1ccccc1C(=O)OCC#C,i,i,6.1%,7.2e-09,6.7%
COc1ccc(NC(=O)CSc2nc3ccccc3c(=O)n2CCNC(C)=O)cc1,i,i,-1.3%,1e-09,5.9%
NC(=O)CCc1c[nH]c2ccccc12,.,.,-1.6%,.,-4.8%
O=c1oc2cc(O)ccc2cc1-c1ccc(F)cc1,i,i,4.5%,1e-09,-4.1%
COc1ccc2[nH]cc(CCNc3ncncc3-c3cccc(NS(C)(=O)=O)c3)c2c1,i,i,1.8%,5.6e-09,6.8%
O=C(Nc1ccc(N2CCOCC2)c(Cl)c1)c1c(F)c(F)c(F)c(F)c1F,i,i,0.2%,3.22e-08,?
CCCCN(C)C(=O)c1coc(=O)c2ccccc12,i,i,-0.1%,1e-09,?
SMILES,A488 fluor,Resorufin fluor,AID923,A647 fluor,TSHR ag
C=CCn1c(SCCCCCC)nc(O)cc1=O,i,i,0.2%,7e-09,4.2%
Cc1ccccc1NC(=O)Nc1cccs1,.,.,3.2%,.,12.1%
CC1(C)CC(=O)C=C(NCC(=O)O)C1,i,i,4.6%,3.68e-08,5.2%
COc1cc2c(cc1OC)C(c1ccncc1)CC(=O)N2 (centres undefined),i,i,0.9%,5.2e-09,?
O=C1C2ON(c3ccccc3)C(c3ccncc3)C2C(=O)N1c1ccc(Br)cc1 (centres undefined),i,i,.,1e-09,.
O=S1(=O)CCN2C=C(Br)C=C(Br)C2=N1,i,i,0.3%,2.71e-08,0.9%
COC(=O)c1cc(NS(=O)(=O)c2ccc(OC)c(OC)c2)ccc1Cl,i,i,-2.2%,4.6e-09,17.5%
CC(C)n1c(NCc2ccc(N(C)C)cc2)nc2ccccc21,i,i,-0.7%,7.5e-09,?

# Compound activity deposited in PubChem by National Center for Advancing Translational Sciences (NCATS).

# Only part of the results is shown; the hit share may differ from the screen's.
